# TRPV1 PAM – human TRPV1 potentiation; Q8NER1; TRPV1-expressing cells, Fluo-8 calcium influx, capsaicin EC20 potentiation; host cell line not named in the record; control for the full effect not named in the record; potentiation, % at 8.33 µM; 0.02% of 320,000 active; AID 540277; active means potentiation above 80%; inconclusive means 30% to 80%; inactive means below 30%; note: 0% is about no effect
#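 Fluo-8 calcium influx in TRPV1-expressing cells, kinetic read (ex 480/em 520 nm). Compound added and read 3 min for agonist activity, followed by capsaicin at EC20 final and 2 min further read for enhancement.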
# D2 potentiator – positive allosteric modulators of human D2 dopamine receptor; DiscoveRx D2 beta-arrestin cells, luminescence, 90 min; 100% = 57 uM dopamine signal; potentiation, % (test concentration not listed); 0.23% of 360,000 active; AID 624464; active = potentiation of 50% or more; inconclusive = 30% to 50%; inactive = 30% or less;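 note: compound concentration not given in the record; tested on top of an EC20 dose of dopamine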
# Target sequence (P14416 whole entry, looked up): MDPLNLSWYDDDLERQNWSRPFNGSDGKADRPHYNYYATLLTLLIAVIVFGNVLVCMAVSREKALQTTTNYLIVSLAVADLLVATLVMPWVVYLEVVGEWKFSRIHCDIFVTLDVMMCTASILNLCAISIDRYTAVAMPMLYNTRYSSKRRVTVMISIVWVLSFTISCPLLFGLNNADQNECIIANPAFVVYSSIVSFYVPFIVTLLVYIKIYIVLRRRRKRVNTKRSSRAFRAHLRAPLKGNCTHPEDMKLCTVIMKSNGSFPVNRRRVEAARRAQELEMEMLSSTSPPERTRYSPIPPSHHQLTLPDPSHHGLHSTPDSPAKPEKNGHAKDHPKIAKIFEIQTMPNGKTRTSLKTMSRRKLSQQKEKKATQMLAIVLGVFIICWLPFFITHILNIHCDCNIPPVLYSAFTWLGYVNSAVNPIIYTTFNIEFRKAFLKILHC
#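 PathHunter D2 cells, attached overnight at 37 deg C, received compound in DMSO plus dopamine at EC20 (50 nM final) for 90 min at 37 deg C. Beta-arrestin recruitment was read as luminescence after 1 h with detection reagent at ambient temperature.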
# TRPML1 ag – activates the human TRPML1 channel | TRPML1-expressing cells, Ca2+ dye fluorescence, FDSS; host cell line not named in the record; reference of the full effect not given here | activation, % (concentration not given with the values) | 0.12% of 410,000 active; in the data active = activation above about 50%; inconclusive = about 30% to 50%; inactive = below about 30%; note: 0% is about no effect; the text of the record puts the active cut at 80%
# Target sequence (Q9GZU1 whole entry, looked up): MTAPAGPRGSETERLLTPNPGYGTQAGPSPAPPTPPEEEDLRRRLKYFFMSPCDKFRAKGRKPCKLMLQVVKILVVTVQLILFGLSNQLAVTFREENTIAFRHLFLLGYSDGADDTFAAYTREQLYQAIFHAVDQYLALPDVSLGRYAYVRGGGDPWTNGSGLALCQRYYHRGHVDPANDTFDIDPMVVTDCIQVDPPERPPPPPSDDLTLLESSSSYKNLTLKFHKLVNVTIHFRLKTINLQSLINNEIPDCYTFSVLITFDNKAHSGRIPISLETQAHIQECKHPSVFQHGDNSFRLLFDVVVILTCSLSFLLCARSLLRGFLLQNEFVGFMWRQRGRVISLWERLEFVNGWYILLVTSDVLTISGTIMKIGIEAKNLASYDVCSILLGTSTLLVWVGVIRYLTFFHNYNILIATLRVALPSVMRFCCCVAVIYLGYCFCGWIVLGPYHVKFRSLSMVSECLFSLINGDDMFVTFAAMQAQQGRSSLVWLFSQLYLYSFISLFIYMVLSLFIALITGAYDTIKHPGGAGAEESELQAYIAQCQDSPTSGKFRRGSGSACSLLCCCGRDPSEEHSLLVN
#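 Calcium fluorescence on an FDSS kinetic reader gave the read-out. Tet-induced TRPML1-DL cells were plated overnight, dye-loaded (Ca8 with quencher, 45-90 min, room temperature, dark), then read 110 s after compound addition, and again 110 s after 4uM final 54-4 (EC80).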
# Six1-Eya2 blk – Six1/Eya2 interaction inhibition | Q15475+O00167 | AID 651725 | 0.56% of 360,000 active | AlphaScreen GST-Six1/His-Eya2 binding, biochemical; active compounds read low; control for the full effect not named in the record | activity change, % (test concentration not listed); in the data active = activity change below about -65%; inconclusive = about -30% to -65%; inactive = above about -30%; note: % is set by controls: 0 for no effect and ±100 for the full control effect
#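 Six1/Eya2 binding was read as AlphaScreen signal after compounds were pinned into GST-Six1 plus His-tagged Eya2 (5X stock 250/500 nM) in pH 8.0 Tris/NaCl/TCEP buffer, beads added, then incubated 1 h, 37 C, dark.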
# TRPML1 blocker – human mucolipin-1 channel inhibition | Q9GZU1 | TRPML1-inducible cells, Ca2+ dye fluorescence, FDSS; active compounds read low; inhibition of EC80 agonist-evoked calcium signal | activity change, negative = inhibition, % (no concentration beside the values) | 0.02% of 390,000 active | AID 624415; in the data active means activity change below about -50%; inconclusive means about -30% to -50%; inactive means above about -30%;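 note: stimulus is agonist 54-4 at its EC80 concentration; % is set by controls: 0 for no effect and ±100 for the full control effect; compound concentration not given in the record; the text of the record puts the active cut at -80%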
#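 Tet-induced TRPML1-DL cells loaded with Ca8 no-wash calcium dye were read kinetically on FDSS. Compound addition was followed by EC80 agonist 54-4 (4 uM final); inhibition was read over 110 s.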
# CtBP-E1A blk – CtBP/E1A binding inhibition | 0.49% of 340,000 active | AID 651724 | AlphaScreen GST-E1A/His-CtBP binding, 1536-well; active compounds read low; control for the full effect not named in the record | activity change, % (test concentration not listed); in the data active means activity change below about -65%; inconclusive means about -30% to -65%; inactive means above about -30%; note: % is set by controls: 0 for no effect and ±100 for the full control effect
#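 AlphaScreen with 125 nM GST-E1A and 125 nM His-CtBP (5X stocks) in Tris pH 8.0, 300 mM NaCl, BSA, Tween 20, TCEP. Compounds preincubated 2 h at 37 deg C, then glutathione donor/nickel acceptor beads added for 1 h at 37 deg C in dark.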
# Starred values were filed as active, the others as inactive; ? = inconclusive; . = not tested or not shown; & = joins results of further samples. Rows were taken by chance. About 0.95% of those tested had a hit in this group.
smiles | TRPV1 PAM | D2 potentiator | TRPML1 ag | Six1-Eya2 blk | TRPML1 blocker | CtBP-E1A blk
CCC1=NN(C(=O)COc2ccccc2)C(O)(c2ccncc2)C1 (stereo not given) | 14 | -2 | 0.4 | -3 | 4 | -7
Cc1noc(C)c1NC(=O)N(C)C[C@@H]1Oc2c(NC(=O)NC(C)C)cccc2C(=O)N([C@@H](C)CO)C[C@@H]1C | . | . | -0.7 | 2 | 42 | 5
CCCN1Cc2cccc(C(=O)NCCc3cccc(C)c3)c2C1=O | 1 | -13 | 3.5 | -7 | -1 | .
CCOc1ccc(S(=O)(=O)NC(C)C)cc1C(N)=O | -1 | -3 | -0.3 | 14 | 5 | .
CCOC(=O)C1=C(C)Nc2ccccc2N=C1NC(=O)C(CC)c1ccccc1 (stereo not given) | 3 | -9 | 0.4 | 5 | -21 | .
O=C(Cn1nnc(-c2ccccc2F)n1)N1CCCCC1 | -10 | 0 | -0.6 | 0 | 11 | 11
CC(C)C(C(=O)NCC1CCCO1)N(Cc1cccs1)C(=O)CNS(=O)(=O)c1ccccc1 (stereo not given) | 0 | -3 | 1.5 | 3 | -21 | 3
COc1ccc(C)cc1NC(=O)CCN1CCCC1 | ? | -30 | 0.5 | -1 | 39 | -5
COCCCNC(=O)CNC(=S)N(Cc1ccccc1)Cc1cccnc1 | -2 | -8 | -0.2 | -4 | 10 | 6
CCN1CCN(c2nc3c(C)cccn3c(=O)c2/C=C(\C#N)S(=O)(=O)c2ccc(C)cc2)CC1 | -8 | -26 | 0.6 | ? | 4 | ?
O=C(c1ccc2nc[nH]c2c1)N1CCN(S(=O)(=O)c2cccc(Cl)c2)CC1 | . | 1 | 0.0 | 2 | -7 | -7
Cn1c(=NC(=O)c2ccccc2[N+](=O)[O-])sc2cc(S(C)(=O)=O)ccc21 | 5 | 8 | 3.5 | -1 | -1 | 5
Cc1cc2nc(-c3ccc(SCc4ccccc4C#N)nc3)[nH]c2cc1C | -12 | 6 | 1.4 | -8 | 5 | 9
O=C(CSc1cn(Cc2ccccc2)c2ccccc12)Nc1nccs1 | 23 | -5 | 0.0 | -20 | 6 | -26
CCn1cc(CN2CCC(C(=O)Nc3cccc(-c4cccc(F)c4)c3)CC2)cn1 | 12 | -36 | 0.5 | 0 | 6 | -5
CCOc1ccc(-n2c(C)cc(/C=C3/C(=N)N4C(=NC3=O)SN=C4S(C)(=O)=O)c2C)cc1 | 9 | 6 | 0.5 | -5 | -2 | .
O=C(CCSCc1ccc(Cl)cc1)NCCc1ccccc1 | -6 | -2 | -0.2&-0.7 | 11 | 0&1 | 6
Cc1cn([C@H]2C[C@H](O)[C@@H](CCC(=O)NCCCn3ccnc3)O2)c(=O)[nH]c1=O | . | . | 0.1 | 3 | 25 | 4
Cc1ccc(S(=O)(=O)N(CC(O)CN2CCCC2)c2ccccc2)cc1 (stereo not given) | 1 | -27 | -0.5 | -5 | -4 | 6
Cc1nn(Cc2c(F)c(F)c(F)c(F)c2F)c(C)c1NC(=O)c1c(-c2ccccc2)nn(-c2ccccc2)c1C | 28 | 6 | 1.8 | -3 | 2 | 0
CN(CC(=O)Nc1ccc(Cl)cc1)C(=O)c1cccc(S(=O)(=O)N(C)C)c1 | 2 | -1 | 0.2 | 2 | 5 | 8
Cc1ccc(-c2c(C#N)c(N)n(-c3ccccc3C)c(=O)c2C#N)cc1 | . | -6 | -0.4 | 11 | -14 | 6
COc1ccc2[nH]c3c(c2c1)CC(C)NC3=O (stereo not given) | -27 | -18 | -0.7 | 5 | 2 | .
O=C(COC(=O)c1ccc(F)cc1F)Nc1ccc2[nH]c(=O)[nH]c2c1 | 0 | -2 | 0.4 | -12 | 2 | -4
CC(C)CN(CC(C)C)C(=O)CN1c2cccc3cccc(c23)S1(=O)=O | -27 | -5 | 0.8 | 5 | 12 | 6
CCCn1c2c(c(O)c(C(=O)NCc3ccccc3)c1=O)CCCC2 | -3 | -3 | 0.1 | 18 | 14 | 10
Cc1ccc(S(=O)(=O)N2CCCCC2)cc1NC(=O)COC(=O)c1cccn1C | . | -7 | -2.0 | -5 | -3 | .
O=C(NCC1CCCO1)C(=O)N/N=C/c1c(F)cccc1Cl (stereo not given) | 2 | 3 | 1.2 | 4 | 11 | 9
CCN(c1ccccc1)S(=O)(=O)c1ccc(OC)c(NC(=O)c2ccc(=O)[nH]c2)c1 | . | -28 | -0.1 | 25 | -9 | -24
COC(=O)C1(C)CCCC2(C)C1CCC13OCC(CC21)C(O)(C(C)C)C3O (stereo not given) | . | 2 | -0.1 | 1 | -3 | 2
COc1ccccc1NC(=O)c1cc2ccccc2o1 | 8 | -23 | 0.7 | 13 | 2 | 9
CCc1nnc(NC(=O)c2sc3nc4c(cc3c2N)CCCCCC4)s1 | 2 | 2 | -0.1 | 1 | -6 | 0
Cc1cccc2c1cnn2C(=O)CCC(=O)NC1CCCCC1 | -24 | -4 | 0.1 | 10 | -1 | 0
Cc1ccc(CCS(=O)(=O)c2ccc(C(C)(C)C)cc2)cn1 | -24 | -4 | 0.2 | 8 | -5 | 1
O=[N+]([O-])c1ccc(CN2CCN(c3nc4ccccc4s3)CC2)cc1 | -6 | -5 | -0.3 | -6 | -16 | -16
O=S(=O)(c1ccccc1)N1CCCCC1CCc1ccccc1 (stereo not given) | . | 7 | 3.4 | 40 | 80 | 5
N/C(=N\OC(=O)COc1ccc(Br)cc1)c1cccc([N+](=O)[O-])c1 | 5 | -8 | -0.7 | -6 | -3 | -17
CC(C)C(=O)NC(Nc1cccc([N+](=O)[O-])c1)C(Cl)(Cl)Cl (stereo not given) | -1 | -9 | 0.3 | 5 | 29 | .
Cc1cccc(NC(=S)N(Cc2ccc(Br)cc2)Cc2ccc(C(=O)O)cc2)c1 | -5 | -13 | 0.1 | 20 | -12 | .
CCN(CC)CCNc1c(C)cc(CO)c(Cl)c1C | . | -23 | 0.3 | 0 | 18 | -2
O=C(CN1CCN(CC(=O)Nc2ccc(OCc3ccccc3)cc2)CC1)Nc1ccc(F)cc1 | . | 4 | -0.6 | -1 | -4 | -1
CCOCCCn1c(=N)c(C(=O)NCc2ccc3c(c2)OCO3)cc2c(=O)n3cccc(C)c3nc21 | -16 | -8 | 8.2 | -12 | 24 | -19
CC(=O)c1cc(CN2CCC(N3CCC(C(=O)N4CCCC4)CC3)CC2)cs1 | 5 | -1 | -0.7 | 12 | 6 | .
CC(=O)Nc1ccc(NCc2cccs2)cc1 | 1 | -1 | -0.2 | 5 | -13 | -7
CC(C)(C)OC(=O)N(CCc1ccccc1)Cc1cccc(OCc2cccc(NC(=O)C3CCC3)c2)c1 | . | 0 | 2.9 | 3 | 17 | 10
COc1ccc(CCNC(=O)CCN2C(=O)c3cccc4cccc(c34)C2=O)cc1OC | 7 | 1 | 0.1 | -2 | -7 | 7
Cc1cc(Cl)cc2sc(NC(=O)c3ccco3)nc12 | -5 | -5 | 0.6 | 5 | 0 | 1
C=CC[C@@H](CC(=O)N(CCO)Cc1ccccc1)C(=O)N[C@@H](COC(=O)[C@@H](CC=C)CC(=O)OC(C)(C)C)Cc1c[nH]c2ccccc12 | . | 10 | 2.3 | -25 | -11 | ?

# Next section.
mol | TRPV1 PAM | D2 potentiator | TRPML1 ag | Six1-Eya2 blk | TRPML1 blocker | CtBP-E1A blk
CCc1c(C)nc2cc(-c3ccc(OC)c(OC)c3)nn2c1N1CCCC1 | -16 | -9 | 2.3 | -7 | 30 | 3
CC(=O)N1c2ccccc2CCc2ccc([N+](=O)[O-])cc21 | 4 | -6 | 0.6 | -2 | -2 | .
COc1ccc(CCNC(=O)c2ccc(-c3cccc([N+](=O)[O-])c3)o2)cc1OC | -12 | 13 | 0.3 | ? | 10 | -14
COc1ccc(C(NC(=O)C2CCN(CCCc3ccccc3)CC2)c2cccs2)cc1 (stereo not given) | . | -15 | 10 | 3 | . | 0
CNCCCNC(=O)c1ccc(/C=N/O)nc1 | -5 | -24 | -0.3 | -69* | -4 | ?
COc1ccc(/C(N)=N/OC(=O)c2cc(-c3ccccc3)nc3ccccc23)cc1 | 5 | 7 | 0.0 | -3 | -17 | 1
CC(C)N=C1NN=C(c2ccc(Cl)c(Cl)c2)CS1 | -5 | -7 | -0.5 | -18 | 30 | -7
Cc1cccc(C(=O)N2CCC(=O)N([C@H](COCc3ccccc3)Cc3ccccc3)CC2)c1 | . | . | -1.0 | 1 | . | -3
O=C(CSc1nc2[nH]ncc2c(=O)n1-c1ccccc1)c1ccc2c(c1)OCCO2 | -36 | 2 | -0.1 | -5 | 7 | 0
O=C1CS/C(=N/N=C2CCCC2)N1 | 2 | -2 | -0.5 | 2 | 17 | -4
Cc1ccc(S(=O)(=O)NC(=NCc2ccccc2)c2ccc(F)cc2)cc1 | 3 | 3 | -0.1 | 8 | -2 | 1
Cc1ccc(S(=O)(=O)NNC(=O)C2COc3ccccc3O2)cc1C (stereo not given) | -5 | -11 | 0.9 | 5 | -21 | .
O=C(CN1C(=O)NC2(CCCC2)C1=O)Nc1nc(-c2ccccc2)cs1 | 0 | 0 | 1.6 | 4 | -6 | -11
CCOC(=O)C1=C(C(=O)OCC)N(CC)CCC1=O | . | 1 | -1.0 | 2 | -18 | -22
Cc1ccc(N=C2NC(=O)C(CO)(CO)S2)cc1 | 18 | -1 | 1.0 | 3 | 18 | 0
O=C(Nc1ccc(C(=O)Oc2ccccc2)c(O)c1)c1ccco1 | -5 | -2 | 1.2 | -1 | 42 | 0
COCCn1c(SCC(=O)N2CCCC2)nc2c([nH]c3ccccc32)c1=O | -3 | -4 | 0.4 | -3 | 7 | 4
O=C(COc1ccc(Cl)cc1Cl)N/N=C/C1CC=CCC1 (stereo not given) | 13 | -21 | 0.7 | -3 | -27 | -1
COC(=O)c1ccccc1S(=O)(=O)N1CCC(C(=O)NCCC2=CCCCC2)CC1 | -10 | -5 | -0.2 | 7 | -2 | 0
CC(C)(C)C1CCC2(CC1)CC(=O)c1ccccc1O2 (stereo not given) | -11 | -11 | 0.3 | -1 | 12 | .
CCc1cccc(NC(=S)Nc2ccc(CN3CCOCC3)cc2)c1 | -6 | -18 | 0.7 | 4 | -7 | 0

# Screening data deposited in PubChem BioAssay by National Center for Advancing Translational Sciences (NCATS).
